Sa RN4220 lethal: kills Staphylococcus aureus RN4220 | S. aureus RN4220 growth, OD600, 16 h | inhibition, % (concentration not given with the values) | hit rate 0.33% among 330,000 | AID 1259311;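 active = z-score of -3 or lower and OD600 up to 0.18 on both plates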;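 also: plate controls were untreated cells for no effect and reference antibiotic for full effect; stock transfer was 100 nL into about 80 µL; one replicate is shown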
Bead autofluor: compound fluorescence in toxin protease inhibitor counterscreen; compound autofluorescence counterscreen, microsphere flow cytometry; hits give high values; fluorescence intensity (concentration not given with the values); hit rate 3.1% among 360,000;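 active = at least 3 SD above the mean of all compounds, about 16000 in these data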;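 also: 100 nL of 1 mM stock went into each well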
ugtP null kill: kills S. aureus RN4220 lacking UgtP; AID 1259309; hit rate 0.54% among 330,000; growth inhibition, % (concentration not given with the values); S. aureus RN4220 ugtP deletion, OD600 growth, 16 h; some inactives read as strong as hits;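 active = z-score under -3 and OD600 up to 0.15 on both plates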;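 also: plate controls were untreated wells for no effect and antibiotic for full effect; wells of about 80 µL received 100 nL stock; the first replicate is given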
PrP 5UTR inh: suppresses PrP 5' UTR mRNA reporter expression. cell-based PrP 5' UTR mRNA reporter, plate reader. inhibition, % (test concentration not listed). hit rate 0.35% among 340,000. AID 488862;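 active = every replicate at 50% or more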;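 also: 0 = median of the neutral control wells; tested in H4 reporter cells; numbers are from one replicate; inactives centre near -14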
BJeLR viability: kills HRASV12-expressing BJeLR cells. BJeLR (HRASV12) viability, CellTiter-Glo ATP luminescence, 48 h; reference of the scale not given here. inhibition, % (test concentration not listed). hit rate 0.17% among 300,000. AID 1554;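 active = replicate mean above 50%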;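 also: 50 nL library stock added to about 25 µL; numbers are from one replicate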
Mtb hypoxia inh: reduces hypoxia-regulated biosensor signal in M. tuberculosis; AID 1159583; fluorescence inhibition, % (no concentration beside the values); hit rate 0.1% among 300,000; M. tuberculosis hypoxia-regulated fluorescent reporter, fluorescence;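 active = 35 to 45% if threefold the growth effect, above 45% if 1.5-fold the growth effect; inactive = the rest, general growth blockers included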;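 also: wells of about 50 µL received 100 nL stock; 0% = vehicle wells and 100% = reference inhibitor wells; whole bacteria with a GFP reporter of the hypoxia response; strong numbers were not always called active; many hits fall short of the cut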
Mtb hypoxia inh growth: also measured in Mtb hypoxia inh; calls as there; growth inhibition, %; measured here: M. tuberculosis growth (absorbance);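 0% = vehicle and 100% = reference antibiotic; read after six days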
The depositor's hits bear a star; nt = not tested or not shown.

SMILES	Sa RN4220 lethal	Bead autofluor	ugtP null kill	PrP 5UTR inh	BJeLR viability	Mtb hypoxia inh	Mtb hypoxia inh growth
CC(=O)Nc1ccc2nc(-c3ccco3)[nH]c2c1	0.2	3995	-1.8	-13.2	-21.1	-1.3	3.7
CCOC(=O)C1CCN(C=C2C(=O)N(C)C(=S)N(C)C2=O)CC1	nt	10027	nt	-21.5	1.2	nt	nt
O=S1(=O)CCOCCCN1Cc1ccccc1	1.3	2751	-1.9	-17.1	-6.7	1.4	-1.1
CCCCn1c(N)c(NCc2ccccc2)c(=O)[nH]c1=O	5.2	3835	2.4	-19.6	-0.7	-9.0	-8.2
Cc1ccc(-n2nc(C)c3c2OC(N)=C(C#N)C3c2ccc(C)o2)cc1 (stereo not drawn)	3.7	10591	4.5	-12.1	-5.1	0.6	6.0
COc1cc(C2NC(=S)NC(C)=C2C(=O)OC(C)C)ccc1OC(C)C (stereo not drawn)	5.1	10631	-2.0	-19.7	-2.0	2.1	11.7
Cc1ccc(NS(=O)(=O)c2ccc(C(=O)NCC3CCCO3)cc2)cc1 (stereo not drawn)	1.5	4011	-0.1	-2.1	1.7	-8.7	-2.5
CC(=O)Nc1ccc(NC(=O)CSc2nnc(C3CC3)n2C)cc1	1.2	2998	5.0	-18.3	1.6	nt	nt
Cc1cc(C)c(NC(=O)CS(=O)CC(=O)Nc2ccc(-n3cnnn3)c(C)c2)c(C)c1 (stereo not drawn)	0.7	3857	-0.8	-23.0	-1.6	12.9	-0.8
CC(Cc1ccccc1)=NNC(=O)CNC(=O)c1ccccc1F	2.4	nt	0.8	nt	nt	-3.8	-4.1
Cc1cc(C(=O)N/N=C2\CCCC(C)C2)n[nH]1 (stereo not drawn)	nt	8952	nt	13.1	11.5	nt	nt
COc1cc(OC)cc(C(=O)NC2CCN(Cc3nnnn3Cc3cccs3)CC2)c1	3.5	25214*	-3.0	-20.2	-6.2	11.3	3.2
Cc1ccc(-n2ncc3c(=O)n(CC(=O)N(C)C)cnc32)cc1	2.3	3390	12.5	-27.5	-1.1	4.5	-2.5
Cc1ccc(C(=O)CSc2nnc(COc3ccc(C#N)cc3)n2-c2ccccc2)cc1	6.0	3126	-17.2	-16.2	-10.6	5.5	9.7
CCCS(=O)(=O)N1CCCC(C(=O)N2CCN(c3ccccc3)CC2)C1 (stereo not drawn)	-16.6	2747	-4.5	-11.2	-0.3	3.5	-1.4
Cn1c(SCC(=O)O)nnc1C1CCCCC1	5.1	8319	-0.6	-4.0	3.7	0.9	1.8
COc1ccc(OC)c(NC(=O)CCn2ccnc2)c1	3.6	3182	13.2	-13.8	-4.4	-0.1	-4.9
Cc1ccc(-n2[nH]c(C)c(C=NNc3ccc([N+](=O)[O-])cc3[N+](=O)[O-])c2=O)cc1C	7.6	nt	1.5	nt	nt	13.8	-0.8
O=C(COc1cc2oc(=O)c3c(c2cc1Cl)CCC3)NCC1CCC(C(=O)O)CC1 (stereo not drawn)	1.9	5359	3.1	-7.2	-4.7	-0.5	-3.2
CCc1nc(SCC(=O)Nc2ccccc2C(=O)OC)n[nH]1	3.8	3327	4.8	-17.0	-1.2	16.5	5.3
CC1(C)C(=O)N(c2ccccc2)C1c1ccccc1O (stereo not drawn)	8.1	3705	5.0	nt	-5.0	6.9	-0.6
Cc1cc(NS(=O)(=O)Cc2ccccc2)cc(C)c1OCC(=O)N1CCOCC1	-10.2	3016	-6.7	-2.3	1.4	14.8	9.9
COc1ccc(NC(=O)CSc2cc(C)nc3c(-c4ccccc4)cnn23)cc1	5.6	6084	-4.6	-0.4	-2.4	10.8	2.1
O=C(c1cccc(Cl)c1)N1CCN(S(=O)(=O)c2ccc(Cl)s2)CC1	4.6	7831	2.1	-22.1	nt	2.8	4.4
CCn1ccnc1CN(C)C(=O)c1cc(COc2c(F)cccc2F)on1	6.5	3407	8.1	-19.8	3.2	4.2	2.8
COc1ccc(-c2cn[nH]c2N)cc1OC	8.4	2424	2.4	-6.4	-6.2	10.5	1.6
O=C(CC1C(=O)N(c2ccc(Cl)cc2)C(=S)N1CCc1ccncc1)Nc1ccc(F)cc1 (stereo not drawn)	-12.1	11943	-22.8	-4.7	8.1	-12.4	-12.4
CSCC[C@H](NC(=O)[C@H](Cc1ccccc1)n1c(=O)[nH]c2ccccc2c1=O)C(=O)NCC1CCC(C(=O)O)CC1 (stereo partly drawn)	3.0	5861	-7.7	-5.4	10.8	nt	nt
COc1ccc(C)cc1NC(=O)NNC(=O)C(C)Oc1ccc(F)cc1Cl (stereo not drawn)	2.6	4767	14.5	-8.4	-7.3	3.6	8.8
CN(C)S(=O)(=O)n1cnc(C(CCO)c2ncn(S(=O)(=O)N(C)C)c2CCCO)c1 (stereo not drawn)	4.0	4072	-0.4	-34.6	nt	5.0	7.6
C=CCOc1ccc(CNC(C)(C)C)cc1OC	5.7	2864	-0.1	-8.2	-4.1	10.8	-1.8
O=C(CN1C(=O)CCC1=O)Nc1nc(-c2nc3ccccc3s2)cs1	-2.1	5067	11.5	-38.1	-6.0	4.8	4.2
COc1ccccc1C(=O)N/C(=C\c1cn(S(=O)(=O)N(C)C)c2ccccc12)C(=O)N1CCCCC1	-3.0	5134	1.7	-10.5	-9.6	1.0	-6.0
O=C(c1ccc2c(c1)C(=O)N(c1ccc(Cl)cc1)C2=O)N1CCN(c2ccccn2)CC1	3.3	3091	-3.2	-13.9	2.6	6.6	3.1
Cc1ccc(S(=O)(=O)N[C@@H](Cc2ccccc2)C(=O)N2CCC(C(=O)N[C@@H](CCC(N)=O)C(=O)O)CC2)cc1	6.3	3589	16.1	-18.7	0.9	10.8	10.9
Cc1ccc(-n2nc3ccc(N)cc3n2)cc1	0.3	3946	0.5	-20.4	-2.2	1.4	6.7
CCC(CO)Oc1cc(NCc2ccccc2OC)c2ncn(C(C)C)c2c1 (stereo not drawn)	1.4	3410	3.1	-6.1	nt	7.7	3.5
CC(C)=C1SC(N2CCN(Cc3ccccc3)CC2)=NC1=O	4.7	8959	2.4	-17.5	4.3	4.0	9.7
COc1ccc(N2CCC(CNC(=S)Nc3cc(C)cc(C)c3)C2)cc1 (stereo not drawn)	-2.3	5737	0.4	-16.1	2.8	3.6	0.2
Cc1ccc(C)c(S(=O)(=O)N/N=C/c2ccc(N(C)C)cc2)c1	nt	4252	nt	-19.6	-21.0	nt	nt

Sorted by molar mass (lowest first): 11 of the compounds above
SMILES	Sa RN4220 lethal	Bead autofluor	ugtP null kill	PrP 5UTR inh	BJeLR viability	Mtb hypoxia inh	Mtb hypoxia inh growth
Cc1ccc(-n2nc3ccc(N)cc3n2)cc1	0.3	3946	0.5	-20.4	-2.2	1.4	6.7
CC1(C)C(=O)N(c2ccccc2)C1c1ccccc1O (stereo not drawn)	8.1	3705	5.0	nt	-5.0	6.9	-0.6
CC(C)=C1SC(N2CCN(Cc3ccccc3)CC2)=NC1=O	4.7	8959	2.4	-17.5	4.3	4.0	9.7
Cc1ccc(C)c(S(=O)(=O)N/N=C/c2ccc(N(C)C)cc2)c1	nt	4252	nt	-19.6	-21.0	nt	nt
O=C(CN1C(=O)CCC1=O)Nc1nc(-c2nc3ccccc3s2)cs1	-2.1	5067	11.5	-38.1	-6.0	4.8	4.2
CCn1ccnc1CN(C)C(=O)c1cc(COc2c(F)cccc2F)on1	6.5	3407	8.1	-19.8	3.2	4.2	2.8
COc1ccc(C)cc1NC(=O)NNC(=O)C(C)Oc1ccc(F)cc1Cl (stereo not drawn)	2.6	4767	14.5	-8.4	-7.3	3.6	8.8
O=C(c1cccc(Cl)c1)N1CCN(S(=O)(=O)c2ccc(Cl)s2)CC1	4.6	7831	2.1	-22.1	nt	2.8	4.4
Cc1cc(NS(=O)(=O)Cc2ccccc2)cc(C)c1OCC(=O)N1CCOCC1	-10.2	3016	-6.7	-2.3	1.4	14.8	9.9
O=C(c1ccc2c(c1)C(=O)N(c1ccc(Cl)cc1)C2=O)N1CCN(c2ccccn2)CC1	3.3	3091	-3.2	-13.9	2.6	6.6	3.1
CSCC[C@H](NC(=O)[C@H](Cc1ccccc1)n1c(=O)[nH]c2ccccc2c1=O)C(=O)NCC1CCC(C(=O)O)CC1 (stereo partly drawn)	3.0	5861	-7.7	-5.4	10.8	nt	nt

Next section:
SMILES	Sa RN4220 lethal	Bead autofluor	ugtP null kill	PrP 5UTR inh	BJeLR viability	Mtb hypoxia inh	Mtb hypoxia inh growth
CCC(=O)OCC(=O)c1c(N)n(Cc2ccccc2)c(=O)n(C)c1=O	-1.4	2740	-1.7	-26.2	4.4	nt	nt
Clc1ccc(C=NNC2=Nc3cccc4cccc2c34)cc1	-2.4	nt	-10.4	nt	nt	-2.9	-18.5
CCOc1ccc(CN2CCN(Cc3cnn(CC)c3C)CC2CCO)cc1 (stereo not drawn)	1.7	2545	1.2	-5.9	-2.2	0.3	10.1
O=C(CSc1nnc(-c2ccc(F)cc2)n1-c1ccccc1)NCCN1C(=O)CSC1=O	3.1	2486	4.7	-4.5	-6.3	1.6	-3.7
CCCCCC(=O)Nc1nc(C)c(-c2csc(Nc3cc(OC)ccc3OC)n2)s1	-6.0	4177	-2.7	-6.3	-0.9	14.8	5.4
Clc1ccc2c(N3CCCC3)ccnc2c1	5.3	3962	4.9	-18.0	-3.6	nt	nt
CC(=O)NC(=S)Nc1ccc(NC(=O)COc2ccc(C(C)C)cc2)cc1	5.5	2556	8.4	-25.7	-5.3	4.6	3.9
Cc1cc(OCC(=O)Nc2nccs2)c2c(C)cc(=O)oc2c1	0.8	4503	2.5	-0.5	1.3	5.7	-5.0
O=C1N/C(=N\N=C\c2ccco2)SC1Cc1ccc(F)cc1 (stereo not drawn)	nt	4435	nt	-17.8	0.7	nt	nt
CCC(=O)Nc1ccc(N2CCOCC2)c(S(=O)(=O)Nc2ccc(Cl)cc2)c1	5.8	nt	-1.5	1.1	nt	1.9	-0.3
O=C(Nc1nccs1)c1cc(-c2ccccc2)nn1-c1ccccc1	4.6	9145	1.8	-14.7	-5.4	-1.3	10.2
CCn1nc(C)c(CN2CCCC(C(=O)c3cccc(OC(C)C)c3)C2)c1C (stereo not drawn)	2.4	2766	10.9	-19.1	8.5	12.6	-4.6
CN(C)C(=O)c1ccc(NS(=O)(=O)c2ccc3c(c2)OCCO3)cc1	1.0	5827	4.6	-23.6	-6.3	-1.9	-3.6
CN(C)C(=O)CN1CCN(Cc2cn(C)nc2-c2ccc3c(c2)OCCO3)CC1	5.3	4363	3.7	-60.4	-9.4	13.6	7.2
N#Cc1ccc(CN2CCN(C(=O)CNC(=O)Cc3ccccc3)CC2)cc1	5.3	nt	10.6	-10.1	nt	-6.2	-4.4
COc1ccc(-c2cc(=O)oc3c(C)c(O)c(CN(C)C)cc23)cc1	7.0	5785	1.5	-3.1	nt	-1.3	13.7
CC1CN(C(C)CO)C(=O)c2cc(NS(=O)(=O)c3ccccc3)ccc2OC1CN(C)C(=O)Nc1ccc2c(c1)OCO2 (stereo not drawn)	8.5	nt	1.8	nt	nt	1.7	11.4
Cc1ccc(CCn2c3c(c4ccccc42)CN(C)CC3)cn1	2.1	9812	-0.7	-15.7	4.9	-2.7	-5.3
NC(=S)Nc1ccc(S(=O)(=O)c2ccc(NC(N)=S)cc2)cc1	4.6	3344	8.2	-11.6	1.2	13.9	6.1
C/C(Cl)=C\Cn1c(N2CCCC2)nc2c1c(=O)n(C)c(=O)n2C	2.1	3030	2.1	-12.4	2.2	7.4	-3.0
COC(=O)c1ccc(C23CC4(C2)C(CN(Cc2ccc(-c5ccccc5)cc2)C4c2ccccc2)C3c2ccc(C(F)(F)F)cc2)cc1 (stereo not drawn)	0.6	nt	-3.9	nt	nt	-0.9	-4.5
CCn1c(CCCNC(=O)c2ccco2)nc2ccccc21	2.7	2972	12.0	-16.0	8.4	11.0	-2.8
Cc1cc(NN=Cc2ccco2)c2ccccc2n1	5.4	nt	6.7	nt	nt	16.3	-2.3
COCCn1c(-c2ccc(NC(C)=O)cc2)nc2c1c(=O)[nH]c(=O)n2CC(C)C	0.0	5918	3.0	-14.1	7.9	19.7	-2.3
CC(=O)Nc1sc(NC(=O)c2ccc([N+](=O)[O-])cc2)nc1-c1cccs1	-0.3	4369	-19.6	-10.5	-11.4	2.0	-2.2
O=C(CCC(=O)c1cccs1)NCCc1ccc(F)cc1	4.1	5723	12.4	-23.6	-7.6	4.4	5.9
COc1ccc(N(CC(=O)NC2CC2)S(=O)(=O)c2ccccc2)cc1	4.1	5786	3.7	-19.9	-7.5	5.6	-1.3
